Screens from PubChem.
RE007 growth inh: qHTS Assay for Inhibitors of the HIV-1 protein Vpr | 360,000 compounds, 0.21% hits | S. pombe RE007 Vpr strain, BacTiter-Glo ATP luminescence, 24 h; control for the full effect not named in the record | AID 651644, 2012 | Potency, µM (top dose mostly 92.2 µM), inactives show top-dose activity change, negative = less growth; active = well fitted falling curve with a large enough effect; inconclusive = small, poorly fitted or top-dose-only effect; inactive = no such curve, though single readings can be large or run the other way;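 note: % is set by controls: 0 for no effect and ±100 for the full control effect; nearly all actives have a fitted effect of over 50% in size; the assay follows cell death caused by Vpr and the record does not say whether a fall means rescue or toxicity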
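Fission yeast strain RE007, carrying one chromosomally integrated HIV-1 vpr copy, was seeded at OD 0.01 in PMG+AL medium with 23 nL pinned compound. After 24 h at 30 °C and 99% humidity, viability was read by BacTiter-Glo luminescence.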
NS1 function inh: qHTS Assay for Inhibitors of Influenza NS1 Protein Function. Potency, µM (highest dose often 46.1 µM), inactives show top-dose activity, positive = more growth. S. cerevisiae slowed by influenza A NS1, growth recovery by OD600. 270,000 compounds, 0.4% hits. AID 2326, 2010; active means well fitted rising curve with a large enough effect; inconclusive means small, poorly fitted or top-dose-only effect; inactive means no such curve, though single readings can be large or run the other way; note: nearly all actives have a fitted effect of over 50% in size
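Read-out: OD600 growth recovery of NS1-expressing budding yeast. Cells grown overnight at 30C in -URA glucose medium, washed, resuspended and diluted 1:100 in 2% galactose assay medium, pH 6.0. Same strain lacking NS1 served as positive control.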
Lassa entry inh: qHTS for Inhibitors of binding or entry into cells for Lassa Virus; Lassa virus pseudotype entry inhibition, cell reporter; control for the full effect not named in the record; Potency, µM (series often up to 37.9 µM), without a hit: at the top dose activity change, negative = inhibition, hits mostly inhibitors; 300,000 compounds, 1.2% hits; AID 540256, 2011; active means well fitted inhibition curve with a large enough effect; inconclusive means small, poorly fitted or top-dose-only effect, or effect the other way; inactive means flat fitted curve, though single readings scatter; tested in HEK293 cells; note: % is set by controls: 0 for no effect and ±100 for the full control effect; nearly all actives have a fitted effect of over 50% in size; luciferase read-out
Cruzain Triton: qHTS Assay for Promiscuous and Specific Inhibitors of Cruzain (with detergent). Cruzipain (Trypanosoma cruzi), P25779. purified cruzain, Z-FR-AMC fluorescence, 0.01% Triton. Potency, µM, for inactives: max response, negative = inhibition, most hits filed as inhibitors. 200,000 compounds, 0.43% hits. AID 1478, 2009;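 note: plate controls were neutral wells for no effect and buffer without enzyme for full effect; nearly all actives have a fitted effect of over 40% in size; top concentration of the series not given in the record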
Target sequence (P25779 123-467 limits assumed): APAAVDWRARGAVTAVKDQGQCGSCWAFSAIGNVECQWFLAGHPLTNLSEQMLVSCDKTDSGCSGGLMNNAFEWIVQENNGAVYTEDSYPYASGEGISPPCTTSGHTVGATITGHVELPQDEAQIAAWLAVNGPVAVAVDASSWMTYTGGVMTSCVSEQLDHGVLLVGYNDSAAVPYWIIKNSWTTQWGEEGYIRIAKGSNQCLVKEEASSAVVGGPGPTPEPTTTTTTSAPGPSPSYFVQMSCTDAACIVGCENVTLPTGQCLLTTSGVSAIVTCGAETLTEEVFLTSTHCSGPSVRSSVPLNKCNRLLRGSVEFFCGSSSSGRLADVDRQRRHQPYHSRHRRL
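Read-out: AMC fluorescence (360 nm excitation, 450 nm emission), four reads over 2 min, first-to-third difference used. Conditions: cruzain 1.5 nM, Z-FR-AMC 2 uM, pH 5.5 acetate, 5 mM DTT, 0.01% Triton X-100.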
Marburg entry inh: qHTS for inhibitors of binding or entry into cells for Marburg Virus | 300,000 compounds, 1.8% hits | Marburg virus pseudotyped entry inhibition, cell reporter; control for the full effect not named in the record; about a third of the inactives were read at about 46 µM | Potency, µM (series often up to 37.8 µM), for inactives: at the highest dose activity change, negative = inhibition, usual class: inhibitors | AID 540276, 2011; active = well fitted inhibition curve with a large enough effect; inconclusive = small, poorly fitted or top-dose-only effect, or effect the other way; inactive = flat fitted curve, though single readings scatter; tested in HEK293 cells; about a fifth of its hits are not listed in these tables; note: % is set by controls: 0 for no effect and ±100 for the full control effect; luciferase read-out
StopGo reporter: High Throughput Screening for Foot and Mouth Disease Virus Antivirals. human cells with a luciferase reporter of 2A StopGo recoding; control for the full effect not named in the record. Potency, µM (top dose mostly 57.9 µM), for the others: at the highest dose signal change, negative = less light. 410,000 compounds, 1.2% hits. AID 1159524, 2015; active = well fitted falling curve with a large enough effect; inconclusive = small, poorly fitted or top-dose-only effect; inactive = no such curve, though single readings can be large or run the other way; tested in HEK293T cells; note: % is set by controls: 0 for no effect and ±100 for the full control effect; nearly all actives have a fitted effect of over 45% in size; luciferase light after 4 h
SARS PLP yeast: qHTS of Yeast-based Assay for SARS-CoV PLP; S. cerevisiae expressing SARS-CoV PLpro, growth rescue; control for the full effect not named in the record; Potency, µM (highest dose often 32.9 µM), for inactives: at the top dose activity, positive = growth rescue; 330,000 compounds, 0.19% hits; active means well fitted rising curve with a large enough effect; inconclusive means small, poorly fitted or top-dose-only effect; inactive means no such curve, though single readings can be large or run the other way; note: 0% is about no effect; nearly all actives have a fitted effect of over 55% in size; growth read by luminescence after 48 h
Cruzain inh noDet: qHTS Assay for Promiscuous and Specific Inhibitors of Cruzain (without detergent); Cruzipain (Trypanosoma cruzi), P25779; purified cruzain, Z-FR-AMC fluorescence, no detergent; Potency, µM, for the others: max response, negative = inhibition, most hits filed as inhibitors; 200,000 compounds, 2.3% hits; AID 1476, 2009;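 note: plate controls were enzyme without inhibitor for no effect and buffer without enzyme for full effect; nearly all actives have a fitted effect of over 40% in size; top concentration of the series not given in the record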
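Purified cruzain at 1.5 nM, pre-incubated 15 min with compound at room temperature in 100 mM sodium acetate pH 5.5, 5 mM DTT, 0.00005% Triton X-100. Reaction started with 2 uM Z-FR-AMC; AMC fluorescence increase over 60 s gives rate.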
The depositor's hits bear a star; ? = inconclusive; nt = not tested or not shown; & = joins results of further samples; [ ] = dose if it differs, or a comment. Unless noted, calls come from the whole dose curve; as a rule, active = well fitted curve in the direction sought with a large enough effect; inconclusive = small, poorly fitted or top-dose-only effect, or another doubt; inactive = no such curve, though single readings can be large; an effect the other way counts as inactive or inconclusive. Potency is the fitted concentration of half-maximal effect. The order is random; overall some 4.5% were active at least once.

SMILES | RE007 growth inh | NS1 function inh | Lassa entry inh | Cruzain Triton | Marburg entry inh | StopGo reporter | SARS PLP yeast | Cruzain inh noDet
COc1ccccc1C/C(N)=N/OC(=O)COc1ccc(C)cc1C | -6% | nt | 5% | nt | -21% | -3% | nt | nt
CC(=O)c1ccc(NC(c2ccc(F)cc2)c2nnc(-c3ccccc3)o2)cc1 (stereo not given) | nt | nt | -7%[46.1 µM] | -5.3% | nt | -18% | nt | 2%
CC1=C(O)C(=O)OC1c1c(Cl)cccc1Cl (stereo not given) | 6% | 3% | -3%[46.1 µM] | nt | 5%[46.1 µM] | 1% | 0% | nt
COc1cccc(/C=C2\N=C(SC)SC2=O)c1OC | -14% | -3% | 15% | -2.7% | -4% | -8% | -2% | 1%
COc1cc2cccc(OC)c(=O)c2c(OC)c1OC | 6% | -3% | nt | nt | nt | 4% | 1% | nt
CCOC(=O)c1ccc(CNC(=O)Cn2nnc(-c3ccccc3)n2)o1 | 11% | nt | 23%[46.1 µM] | nt | -3%[46.1 µM] | -27% | -4% | nt
COc1ccc(CS(=O)c2nc(C)cc(C)c2S(C)(=O)=O)cc1 (stereo not given) | 4% | nt | -4%[46.1 µM] | nt | 4%[46.1 µM] | 10% | 0% | nt
CCOc1ccc(NCc2cccn2-c2nnc(N3CCC(C(=O)NCc4ccc(C)cc4)CC3)s2)cc1 | nt | nt | nt | -3.9% | ? | ? | nt | -5%
Cc1c(C(=O)Nc2ccc(C(=O)O)cc2)nnn1-c1ccccc1 | nt | nt | ? | -1.8% | nt | 10µM* | nt | -3%
O=C1Nc2ccccc2C1Cc1ccccc1 (stereo not given) | 4% | 2% | -7% | nt | 2% | -3% | -1% | nt
CC(C)N1CCC(N2CCN(CCCn3cccn3)CC2CCO)CC1 (stereo not given) | -2% | 1% | nt | nt | nt | ? | -2% | nt
NC(=O)Cn1nc(-c2ccccc2)nc1-c1ccccc1 | -12% | nt | 1% | nt | 5% | 4% | nt | nt
CCC(=O)Oc1ccc2c(C)cc(=O)oc2c1C(=O)CC | 42% | -3% | ? | nt | 12%[46.1 µM] | -5% | 0% | nt
CC(C)Nc1ncnc2c1cnn2-c1ccccc1 | -22% | -11% | nt | -4.0% | nt | 2% | -41% | 9%
CCC(=O)N1CCc2cc(Br)cc(S(=O)(=O)CCC(=O)NCCc3ccc(C)cc3)c21 | nt | nt | 1%[46.1 µM] | -3.2% | nt | 2% | nt | 1%
O=C1CC(c2ccco2)=Nc2ccccc2N1 | 8% | 1% | 12% | -5.1% | -16% | nt | 7% | -5%
CCOC(=O)c1ccccc1NS(=O)(=O)c1ccc(OC)cc1 | 0% | -3% | -11% | -11% | ? | 0% | -1% | -4%
CCOc1ccc(C(=O)c2cc([N+](=O)[O-])ccc2Cl)cc1 | ? | -105% | -16% | -4.4% | -22%[46.1 µM] | -26% | -18% | -3%
CCOc1ccc(C(=O)Nc2cccc(C(=O)O)c2C)cc1Cl | -3% | -6% | 9.2µM* | 0.4% | 5.8µM* | 1.8µM* | 1% | 5%
Cc1ccccc1S(=O)Cc1ccc(C(=O)NCCN2CCOCC2)o1 (stereo not given) | 1% | -3% | nt | nt | nt | -5% | ? | nt
COc1cccc(CNC(=O)C(NS(=O)(=O)c2cccs2)C(C)C)c1 (stereo not given) | nt | nt | 2%[46.1 µM] | -5.7% | -13%[46.1 µM] | -18% | nt | -4%
CC(=O)N1CCC2(CC1)CC(=O)c1cc(OCC(=O)N3CCN(C)CC3)ccc1O2 | 7% | 0% | 12% | -5.9% | 5% | 15% | 2% | 3%
COc1ccc(-n2c(/C=C3\C(=O)Nc4ccccc43)nc3ccccc3c2=O)cc1 | 2% | nt | ? | nt | ? | ? | 3% | nt
O=C(c1ccc2nc[nH]c2c1)N1CCN(c2ncc(C(F)(F)F)cc2Cl)CC1 | 5% | 8% | -24% | nt | -29% | ? | -5% | nt
O=S(=O)(Nc1nc2ccccc2nc1Cl)c1ccc2c(c1)OCCO2 | 1% | nt | -1% | nt | 4%[46.1 µM] | 8% | -2% | nt
CCCN1C2CCCC1CC(NC(=S)Nc1ccc(OC)cc1)C2 (stereo not given) | 3% | 0% | nt | nt | nt | -6% | 1% | nt
O=C(NCc1ccncc1)C1CCCN(S(=O)(=O)c2ccc(Br)cc2)C1 (stereo not given) | 0% | -13% | 2% | nt | -15% | ? | -2% | nt
COC(=O)c1ccc(NC(=O)CNc2ccccc2)cc1 | 17% | -36% | 3% | nt | -9%[46.1 µM] | 60%[activator] | -3% | nt
CC(=O)N1CCCSC1=Nc1ccccc1 | 7% | nt | 2% | nt | -19%[46.1 µM] | -12% | 0% | nt
CC(C)[C@H](NC(=O)c1ccco1)C(=O)NC12CC3CC(CC(C3)C1)C2 | 0% | 3% | nt | nt | nt | ? | 1% | nt
COc1ccccc1-c1nnc(SC(C(=O)c2c[nH]c3ccccc23)c2ccccc2)n1C (stereo not given) | -2% | ? | nt | -10.0% | -2% | 14% | 2% | ?
COC(=O)C1CCN(C(=O)COC(=O)[C@@H]2CC(O)CN2S(=O)(=O)c2ccc3c(c2)OCCO3)CC1 (stereo not given in full) | 9% | -1% | 0% | 0.7% | -10% | -16% | -13% | 23%
CN(CC(=O)Nc1cccc(F)c1)C(=O)c1ccc2c(=O)n3c(nc2c1)CCC3 | 12% | nt | -17% | nt | 12% | -8% | 4% | nt
CC1=C(C)NC(=S)SC1 | 9% | -30% | 7% | -2.7% | 0% | -17% | 1% | -7%
Cc1ccc(S(=O)(=O)Nc2cccc(-c3cn4cccc(C)c4n3)c2)c(C)c1 | nt | nt | -24%[46.1 µM] | -6.8% | -12%[46.1 µM] | 20% | nt | -26%
CC(=O)N1CCc2c(sc3c2c(=O)n(Cc2ccccc2)c(=O)n3Cc2cc(C)ccc2C)C1 | nt | nt | nt | 0.5% | -29%[46.1 µM] | ? | nt | -16%
Clc1ccc(N=C2SCCS2)cc1 | -11% | 5% | nt | nt | nt | 54%[activator] | -1% | nt
O=C(NCCC1=CCCCC1)C1CCC(CNc2c(N3CCCCC3)c(=O)c2=O)CC1 (stereo not given) | -4% | 1% | 1% | nt | ? | -7% | -2% | nt
O=C(Cc1ccc(F)cc1)Nc1nnc(SCC(=O)NC2CCCC2)s1 | -2% | -2% | 1% | nt | -20% | -13% | 1% | nt
CC1/C(=N/O)CC(c2ccco2)NC1c1ccco1 (stereo not given) | 3% | 2% | 17% | 1.0% | ? | -28% | 1% | -9%
COc1cc(C(=O)NC(C)c2ccc(S(N)(=O)=O)cc2)ccc1OCC(=O)N1CCOCC1 (stereo not given) | 6% | 10% | ? | nt | 17% | -18% | -7% | nt
CCn1c(SCC(=O)N2CCN(c3ccccc3)CC2)nnc1-c1cc2cc(Cl)ccc2o1 | -4% | -20% | -10% | -1.5% | -22% | 1% | 5% | -12%
CCCc1ccccc1OCCNC(C)=O | -22% | 5% | -1% | -0.7% | 22% | -17% | 3% | -2%
CN1CCN(C(=S)Nc2ccc(Cl)cc2Cl)CC1 | -1% | 2% | -2% | 3.1% | ? | 37%[activator] | 2%[6.58 µM] | 1.6µM*
COc1ccc(CCC(=O)NCCS(=O)(=O)N2CCN(c3ccccc3)CC2)cc1 | 11% | nt | -29% | nt | -6% | -28% | -5% | nt
CCOCCN1CCN(c2c(CC)c(C)nc3cc(-c4cc(OC)cc(OC)c4)nn23)CC1 | 14% | -26% | ? | -1.1% | ? | -26% | -34% | 10%
CSc1nc(NS(=O)(=O)c2ccc(F)cc2F)nn1C | -6% | 8% | 8%[46.1 µM] | nt | 0%[46.1 µM] | -4% | 2% | nt
CCCCCCc1ccc(N2C[C@H](Cc3ccccc3)[C@@H](CC(=O)NCc3ccc(OC)cc3)C2=O)cc1 | 12% | -1% | nt | nt | nt | -16% | 2% | nt
Cc1noc(NS(=O)(=O)c2ccc(NC(=O)c3cc(=O)c4ccccc4o3)cc2)c1C | 9% | -30% | nt | nt | nt | -7% | -1% | nt
Cn1c(SCC(N)=O)nnc1-c1ccc(C(C)(C)C)cc1 | -11% | 1% | nt | nt | nt | 18% | -2% | nt
CSC1=NC2C(N1)N(C)C(=O)N2C (stereo not given) | 20% | -4% | 8% | 4.7% | -4%&-4% | -13% | 0% | 2%
O=C(Nc1cccc(S(=O)(=O)NC2=NCCC2)c1)c1c(F)cccc1Cl | 2% | nt | 1% | nt | ? | 19% | 2% | nt
CC(=O)N[C@@H](Cc1ccc(OC(F)(F)F)cc1)C(=O)O | 2% | 1% | nt | nt | nt | -10% | 0% | nt
COc1ccc(N2CCN(Cc3cc(=O)oc4ccc(OC)cc34)CC2)cc1 | nt | nt | -8%[46.1 µM] | 3.6% | -29%[46.1 µM] | -21% | nt | 3%
O=C(NNC(=O)c1c(F)cccc1F)c1ccccc1OC(F)(F)F | 4% | -3% | 25% | nt | ? | -12% | 0% | nt
CCn1c(CC(=O)Nc2ccc(OC)cc2)nnc1SCC(=O)N1CCOCC1 | -16% | 4% | -8% | nt | 6% | -9% | -5% | nt
O=C(COc1ccccc1F)Nc1ccc2nc(SCC(=O)N3CCCC3)sc2c1 | nt | nt | 3%[46.1 µM] | -6.6% | ? | ? | nt | 1%
O=C(Cc1cccs1)NNC(=O)c1ccc(F)cc1 | 17% | 10% | 11% | -1.9% | 16% | 4% | 17% | -5%
COc1cc(-c2nnc(SCC(=O)OC3CCCCC3)o2)cc(OC)c1OC | -3% | -11% | -1% | -8.0% | 2% | nt | -5% | 18%
CO/N=C(/c1nonc1N)N1CCN(c2ccc([N+](=O)[O-])cc2)CC1 | 17% | -3% | -5% | -3.9% | ? | ? | 0% | 0%
Cc1ccc(C(=O)OCC(=O)NCCC2=CCCCC2)cc1N | -6% | 7% | 2% | nt | ? | 6% | 2% | nt
CCOC(=O)N1CCN(Cc2nc3cc(NC(=O)c4ccc(OC)cc4)ccc3n2C(C)C)CC1 | nt | nt | ? | -2.7% | nt | 0% | nt | ?
